Screens deposited in PubChem BioAssay by National Center for Advancing Translational Sciences (NCATS).
GLA inh pH 4.5 – inhibitors of human alpha-galactosidase A at pH 4.5; purified enzyme, 4-MU-alpha-Gal fluorescence, pH 4.5; activity change, negative = inhibition, % at 105 µM; P06280; 230,000 tested, under 10 active; AID 1467; inconclusive = small, poorly fitted or top-dose-only inhibition, or a rising curve; inactive = flat fitted curve, though single readings scatter; no compound was filed as active;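 further: 0% = full activity with enzyme and -100% = basal without enzyme; dose as in the result columns while the protocol names 77 µM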
miR-21 reporter – raises the signal of a miR-21 reporter. HeLa miR-21 FLuc reporter, luciferase, 48 h. Potency, µM (doses to about 38.3 µM), inactives show at the top dose reporter change, positive = more light. 340,000 tested, under 10 active. AID 2288; active = well fitted rising curve with a large enough effect; inconclusive = small, poorly fitted or top-dose-only effect; inactive = no such curve, though single readings can be large or run the other way;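 further: % of control where 0% means no effect; miR-21 action dims this reporter so a rising signal means less miR-21 action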
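Compounds were titrated across several concentrations (up to approximately 40 uM) and incubated 48 hours with HeLa miR-21-FLuc reporter cells (miR-21 target sequence downstream of FLuc, endogenous miR-21). Readout was firefly luciferase luminescence after lytic detection reagent.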
Rango complex inh – Rango-importin beta binding inhibition; Q14974; Rango CFP/YFP FRET sensor + importin beta, 45 min; Potency, µM (titrated, usually from 92.2 µM), for the others: at the top dose inhibition of complex formation; 0.031% of 340,000 active; active = rising FRET ratio curve, often small or poorly fitted; inconclusive = mostly compound fluorescence or quenching in the first reads; inactive = flat curves in all reads;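 further: potency means the concentration at half of the fitted maximal effect; 0% = DMSO wells and 100% = buffer wells lacking importin beta; nearly all actives have a fitted effect of over 15% in size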
Target sequence (Q14974 whole entry, looked up): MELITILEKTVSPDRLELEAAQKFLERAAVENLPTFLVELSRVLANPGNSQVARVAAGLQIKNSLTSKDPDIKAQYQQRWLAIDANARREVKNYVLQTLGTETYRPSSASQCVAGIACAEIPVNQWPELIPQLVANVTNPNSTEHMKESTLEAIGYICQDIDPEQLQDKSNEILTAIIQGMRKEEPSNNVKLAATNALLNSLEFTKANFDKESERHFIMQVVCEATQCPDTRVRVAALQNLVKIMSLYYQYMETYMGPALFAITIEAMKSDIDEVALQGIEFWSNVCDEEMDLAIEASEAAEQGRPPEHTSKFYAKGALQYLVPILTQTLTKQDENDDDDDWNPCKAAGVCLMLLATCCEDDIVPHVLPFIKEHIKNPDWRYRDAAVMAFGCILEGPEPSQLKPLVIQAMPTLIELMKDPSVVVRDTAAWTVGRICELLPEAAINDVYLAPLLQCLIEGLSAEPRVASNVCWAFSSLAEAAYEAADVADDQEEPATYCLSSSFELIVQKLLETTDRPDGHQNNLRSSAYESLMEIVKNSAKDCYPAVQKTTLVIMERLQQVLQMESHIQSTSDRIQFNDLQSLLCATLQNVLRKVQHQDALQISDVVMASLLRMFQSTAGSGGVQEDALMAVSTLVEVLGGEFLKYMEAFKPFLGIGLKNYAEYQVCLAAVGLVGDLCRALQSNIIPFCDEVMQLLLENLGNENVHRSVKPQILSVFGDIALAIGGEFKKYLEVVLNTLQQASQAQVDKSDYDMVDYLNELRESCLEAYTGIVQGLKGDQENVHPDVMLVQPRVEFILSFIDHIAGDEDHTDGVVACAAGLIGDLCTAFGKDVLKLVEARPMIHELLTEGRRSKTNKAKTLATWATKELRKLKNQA
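FRET biosensor (snurportin 1 IBB flanked by EYFP and cerulean), 50 nM, with compound 5 min, then 0.125 microM importin beta in PBS, 1 mM DTT, 0.02% Tween-20, 0.1% BSA. CFP/YFP ratio read after 45 min at room temperature; pre-read flags interference.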
Rango dissoc inh – prevents RanGTP from dissociating the Rango-importin beta complex; O95149+P62826; Biochemical FRET Rango-importin beta, RanGTP-induced dissociation; Potency, µM (doses to about 46.1 µM), inactives show at the top dose activity change, negative = inhibition; 0.071% of 340,000 active; AID 540253; active means falling FRET ratio curve, often poorly fitted, with flat reads before Ran was added; inconclusive means other falling curves, or compound fluorescence or quenching; inactive means flat or rising ratio curve;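 further: potency means the concentration at half of the fitted maximal effect; % of control where 0% means no effect; nearly all actives have a fitted effect of over 45% in size; -100% = wells without RanGTP and RCC1; the record marks most hits as doubtful in a second field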
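Rango (0.1 uM)–importin beta (0.25 uM) complex; RanGTP-RCC1 trigger; 45 min RT; CFP/YFP FRET read.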
An asterisk follows results filed as active; ? = inconclusive; / = no result given.

SMILES | GLA inh pH 4.5 | miR-21 reporter | Rango complex inh | Rango dissoc inh
CC(C)C[C@H](NC(=O)[C@@H](Cc1ccccc1)n1c(=O)[nH]c2ccccc2c1=O)C(=O)N[C@@H](Cc1ccccc1)C(=O)O | / | -1% | -1.7% | -5%
O=C(Cn1nc(-c2ccccc2)ccc1=O)NCc1ccc(F)cc1 | -7 | -20% | 4.4% | 6%
C[C@@]12C(=O)N(Cc3ccc(Cl)cc3)CC(=O)N1[C@H]1c3ccccc3OC[C@@H]1[C@@H]2c1ccccc1 | / | / | -1.9% | 2%
COc1ccc(OC)c(NC(=O)N2CCCc3ccccc32)c1 | / | -12% | 0.3% | 6%
CCc1occc(=O)c1Oc1cc(NN2CCCCC2)c([N+](=O)[O-])cc1[N+](=O)[O-] | / | -7% | 0.1% | 24%
Cc1nn(C)c(C(=O)N/N=C/c2ccccc2)c1[N+](=O)[O-] | -6 | 0% | 4.1% | 5%
COC(=O)c1ccc2c(c1)S(=O)(=O)NC(=NCc1ccco1)S2 | 13 | -11% | -1.4% | -3%
CNC(=O)NC1CCCc2ccccc21 (stereo unspecified) | 4 | 0% | 0.3% | -7%
Cn1c(=O)[nH]c(=O)c2c1nc(NCCCn1ccnc1)n2Cc1ccc(F)cc1 | -2 | -1% | -0.8% | 2%
N#CCN1CCC2(O)CCCCC2C1c1ccc2c(c1)OCO2 (stereo unspecified) | -1 | -2% | 0.0% | -7%
C=CCc1cccc2cc(C(=O)Nc3ccc(S(=O)(=O)Nc4nnc(CC)s4)cc3)c(=O)oc12 | -8 | -5% | -0.1% | 11%
Cc1cc(SCc2cc(=O)n3ccsc3n2)nc2ccccc12 | -1 | -12% | -0.6% | -16%
Cc1ncsc1CCC(=O)N1CCCC(C(=O)c2ccc3c(c2)OCO3)C1 (stereo unspecified) | 8 | -12% | -2.4% | -5%
O=S(=O)(c1cccc2nsnc12)N1CCN(Cc2ccccc2)CC1 | / | -4% | 0.4% | -3%
CCC(C)(C)NC(=O)c1cc(S(=O)(=O)N2CCc3ccccc32)cn1C | / | 15% | ? | 25%
NC(=O)c1ccc(NC(=O)COC(=O)/C=C/c2ccc(Br)o2)cc1 | / | / | -1.0% | -9%
CN(Cc1ccccc1)S(=O)(=O)c1ccc2c(c1)OCCO2 | -11 | -3% | -0.7% | 0%
COc1ccc2cnnc(SCC(=O)Nc3ccccc3)c2c1OC | 5 | -7% | 0.7% | ?
CCCCOCCCNC(=O)c1ccc(OC)cc1 | 3 | -3% | 7.5% | -14%
CC1=CC(C)(C)N(C(=O)CSc2nncn2C)c2ccccc21 | 7 | -6% | -1.3% | 1%
Cn1c(=O)oc2cc(S(=O)(=O)N3CCCc4ccccc43)ccc21 | -8 | 15% | -1.0% | 1%
C=CCn1c(=O)n(CCC#N)c(=O)n(CCC#N)c1=O | 5 | -1% | -2.0% | -4%
O=C(NCC1CCNCC1)c1ccncc1 | -5 | -3% | 2.8% | 27%
Cc1sc2ncnc(SCC(=O)c3ccc4c(c3)OCCO4)c2c1-c1ccccc1 | -6 | -2% | 0.8% | 9%
Nc1ccc(S(=O)(=O)Nc2nccc(/C=C/c3ccc(Br)s3)n2)cc1 | -9 | -20% | 4.8% | 18%
CCCCNC(=S)Nc1ccc(OC)nc1 | 7 | 3% | ? | 2%
CC(N=Cc1cc([N+](=O)[O-])ccc1O)c1ccccc1 (stereo unspecified) | -3 | 6% | -5.6% | ?
Cc1ccc(C2C(C(N)=S)=C(N)OC3=C2C(=O)CC(C)(C)C3)cc1 (stereo unspecified) | -1 | -8% | ? | ?
C=C(C)Cn1c(CCCNC(=O)CCC)nc2ccccc21 | 4 | -8% | -1.3% | -7%
O=C(/C=C/c1ccc(Br)o1)OCc1nc2ccsc2c(=O)[nH]1 | / | / | ? | ?
CCCN(C(=O)COc1ccc(C(C)=O)cc1OC)C1CCS(=O)(=O)C1 (stereo unspecified) | / | / | -0.3% | -3%
Cc1[nH]nc2c1C1(CCOCC1)C(C#N)=C(N)O2 | 10 | -3% | 4.2% | -4%
O=C(CCc1c[nH]c2ccccc12)NCC(=O)Nc1ccc(F)c(F)c1F | 0 | 0% | -2.2% | -9%
COc1cc(C(c2c(O)cc(C)[nH]c2=O)c2c(O)cc(C)[nH]c2=O)ccc1O | / | -1% | 0.5% | 1%
O=C(N1CCN(c2ncccn2)CC1)C12CC3CC(CC(C3)C1)C2 | / | / | -5.2% | 5%
O=C(c1ccc2nc[nH]c2c1)N1CCN(S(=O)(=O)c2cccc(Cl)c2)CC1 | / | / | 3.0% | 15%
CSCC[C@H](NC(=O)[C@@H]1CSC2c3ccccc3C(=O)N21)C(=O)N1CCC[C@H]1CO (stereo partly specified) | / | -3% | 0.0% | 0%
COC(=O)[C@H](CCSC)NC(=O)NC1CCN(Cc2ccccc2)CC1 | 2 | 1% | 2.0% | -12%
COc1ccc(OC)c(/C=C/C(=O)Nc2ccc3c(c2)CCC3)c1 | 2 | -40% | -3.6% | -7%
O=C(CSc1nc2ccccc2o1)Nc1nc(-c2ccccc2)c(-c2ccccc2)s1 | -3 | -6% | 0.6% | -5%
CCOCCCNC(=O)C(=O)NCCCOCC | 8 | -7% | 0.1% | -6%
CN(C(=O)c1cccc(NC(=O)Cc2ccc(NC(=O)C3CCN(S(=O)(=O)c4cccc([N+](=O)[O-])c4)CC3)cc2)c1)C1CCCC1 | / | / | -0.4% | 21%
CCOC(=O)C1=C(COC(=O)C2CC(=O)N(CCc3ccccc3)C2)NC(=O)NC1C (stereo unspecified) | / | / | -2.6% | -4%
CCOC(=O)c1[nH]c2c(c1-c1ccccc1)C(=O)CC(c1ccc(Cl)cc1)C2 (stereo unspecified) | 6 | -5% | -0.5% | 10%
CC(C)(/C=N/O)/[N+]([O-])=C/C=[N+](\[O-])C(C)(C)/C=N/O | 3 | 0% | -1.2% | -8%
Cc1ccc(C(=O)N2CCN(Cc3ccc4c(c3)OCO4)CC2)o1 | 2 | -5% | -3.4% | 4%
COC(=O)CSc1ccccc1C(=O)OC | -4 | -8% | -0.4% | -16%
O=C(NCC1CCCO1)C1CCCCN1S(=O)(=O)c1ccc(F)cc1 (stereo unspecified) | 2 | -3% | 0.3% | -13%
Cc1ccsc1/C=C/C1=Cc2c(sc(NC(=O)CSc3n[nH]c(N)n3)c2C#N)C(C)(C)C1 | -4 | -8% | ? | ?
CN(C(=O)C12CC3CC(CC(C3)C1)C2)C1(C)CCS(=O)(=O)C1 (stereo unspecified) | -1 | -7% | 0.7% | 1%
O=C(Nc1nc(-c2nc3ccccc3s2)cs1)c1ccc(S(=O)(=O)N2CCOCC2)cc1 | 7 | 16% | -1.5% | 2%
Cc1ccnc(NS(=O)(=O)c2ccc(NS(=O)(=O)c3cc(Cl)ccc3Cl)cc2)n1 | / | -1% | 3.4% | 11%
CCOC(=O)C1CCN(C(=O)c2cc3cc(F)ccc3[nH]2)CC1 | / | -10% | 2.1% | -6%
COc1ccc(NS(=O)(=O)c2cccc(C(=O)NN=Cc3ccc(O)c(OC)c3)c2)cc1 | / | / | 1.1% | -16%
Cc1cc(NN)nc2ccc(Cl)cc12 | 5 | -11% | 0.0% | -5%
N#Cc1cc2cc3c(cc2nc1SCC(=O)N1CCOCC1)OCCO3 | / | -52% | -4.8% | -3%
Cc1cc(Br)c2nc3c(c(C(=O)O)c2c1)CCCCC3 | 0 | 0% | 4.8% | 9%
Cc1c(N=N/C(C(=O)Nc2ccccc2)=C(/O)c2ccccc2)c(=O)n(-c2ccccc2)n1C | -8 | 4% | 15% | -15%
N#C/C(=C\c1ccc([N+](=O)[O-])o1)C(=O)Nc1ccc(F)cc1 | -2 | 15% | ? | ?
CCOC(=O)C1=C(COC(=O)CNC(=O)c2ccccc2F)NC(=O)NC1C (stereo unspecified) | / | / | 0.0% | 26%

Going on with the list.
SMILES | GLA inh pH 4.5 | miR-21 reporter | Rango complex inh | Rango dissoc inh
COc1ccc(-c2cc(CCCC(=O)NCCc3ccc(OC)cc3OC)no2)cc1 | -23 | -2% | 0.0% | 9%
Cc1cc(SCc2cccc(C(F)(F)F)c2)nc(=O)[nH]1 | / | -16% | 1.6% | -5%
Cc1ccc(-c2nnc(N(C)C(=O)c3ccccn3)s2)cn1 | 1 | -15% | 0.3% | 0%
COc1cccc(C2/C(=C(/O)c3ccncc3)C(=O)C(=O)N2CCCN(C)C)c1 (stereo unspecified) | 6 | 0% | / | /
CNC(=S)NNC(=O)c1cc(C(C)(C)C)nn1Cc1ccc(F)cc1 | 5 | -13% | -4.1% | 10%
CCN(CC(=O)Nc1c(F)cccc1F)C(=O)/C=C/c1c(C)nn(-c2ccc(F)cc2)c1C | / | / | 1.8% | -8%
COc1cc(C(=O)Nc2ccc(S(=O)(=O)Nc3cc(C)on3)cc2)cc(OC)c1OC | 5 | 0% | 2.0% | -9%
CC1(C)CCc2nc(SCc3ccccc3)c(C#N)cc2C1 | -1 | -25% | -0.8% | 1%
COC(=O)c1ccc(NC2=C(Cl)C(=O)OC2OC(=O)c2ccccc2)cc1 (stereo unspecified) | -13 | 1% | -2.9% | 7%
CC(C)(C)OC(=O)NCCCC[C@H](NC(=O)c1nc[nH]c1C(=O)NCc1ccccc1)C(=O)OC(C)(C)C | ? | 19% | -4.8% | 2%
CCN(CC)Cc1c(O)c(Cl)cc2c(C)c(C)c(=O)oc12 | ? | -4% | ? | ?
CCCc1cc(-c2n[nH]c(=S)n2Cc2ccccc2)cs1 | -9 | -4% | 4.5% | -6%

Whole records, quoted from the list.
CCN(CC)Cc1c(O)c(Cl)cc2c(C)c(C)c(=O)oc12 is listed with GLA inh pH 4.5: ?; miR-21 reporter: -4%; Rango complex inh: ?; Rango dissoc inh: ?
CNC(=S)NNC(=O)c1cc(C(C)(C)C)nn1Cc1ccc(F)cc1 is listed with GLA inh pH 4.5: 5; miR-21 reporter: -13%; Rango complex inh: -4.1%; Rango dissoc inh: 10%

Returning to the listing, starting four compounds before the break.
SMILES | GLA inh pH 4.5 | miR-21 reporter | Rango complex inh | Rango dissoc inh
COC(=O)c1ccc(NC2=C(Cl)C(=O)OC2OC(=O)c2ccccc2)cc1 (stereo unspecified) | -13 | 1% | -2.9% | 7%
CC(C)(C)OC(=O)NCCCC[C@H](NC(=O)c1nc[nH]c1C(=O)NCc1ccccc1)C(=O)OC(C)(C)C | ? | 19% | -4.8% | 2%
CCN(CC)Cc1c(O)c(Cl)cc2c(C)c(C)c(=O)oc12 | ? | -4% | ? | ?
CCCc1cc(-c2n[nH]c(=S)n2Cc2ccccc2)cs1 | -9 | -4% | 4.5% | -6%
Cc1cc2cc(CCNC(=O)C3c4ccccc4Oc4ccccc43)c(=O)[nH]c2cc1C | 3 | -1% | / | /
Cc1nc(SCC(=O)c2cc3ccccc3oc2=O)c(C#N)c(C)c1C(=O)Nc1ccccc1 | -16 | 0% | / | /
COc1ccc(CCNC(=O)COC(=O)c2cc(=O)c3ccccc3o2)cc1 | / | / | 0.8% | 1%
CC(=O)Nc1ccc(NC(=O)COC(=O)c2n[nH]c3ccccc23)cc1 | 0 | 0% | 2.0% | 0%
Cc1ccccc1C(=O)OC(C)C(=O)NCc1ccc2c(c1)OCO2 (stereo unspecified) | / | / | -4.9% | ?
Cc1cc(C)nc(/N=C(\N)Nc2ccc3c(c2)OCCO3)n1 | 2 | 13% | -4.7% | 9%
CCOC(=O)Cn1nnnc1CN1CCN(c2ccc(OC)cc2)CC1 | -3 | 0% | 4.7% | -17%
CN(CC(=O)O)S(=O)(=O)c1ccc2[nH]c(=O)c(=O)[nH]c2c1 | 0 | 2% | -0.4% | -15%
O=C(NCc1ccccn1)C(=O)Nc1ccccc1 | -4 | -61% | -0.6% | 0%
CC(/C=N/NC(=O)COc1ccccc1C)=N\NC(=O)COc1ccccc1C | / | -2% | -1.6% | 13%
O=[N+]([O-])c1ccc(S(=O)(=O)N2CCN(Cc3ccco3)CC2)cc1 | / | -2% | -2.0% | 20%
CN(C)C(CNC(=O)c1cccc(S(=O)(=O)Nc2ccccc2Cl)c1)c1ccco1 (stereo unspecified) | / | / | ? | ?
COc1ccc(Cc2nnc(SCC(=O)N3CCCCC3)o2)cc1 | 3 | 0% | 1.4% | 0%

A portion of the library; rates above refer to the full screens.
